TRPV1 potentiator: HTS Assay for Compounds that Act as Potentiators of the Vanilloid Receptor 1; TRPV1-expressing cells, Fluo-8 calcium influx, capsaicin EC20 potentiation; host cell line not named in the record; control for the full effect not named in the record; potentiation, % at 8.33 µM; hit rate 0.02% among 320,000; AID 540277, 2011; active means potentiation above 80%; inconclusive means 30% to 80%; inactive means below 30%; further: 0% is about no effect
Target sequence (Q8NER1 whole entry, looked up): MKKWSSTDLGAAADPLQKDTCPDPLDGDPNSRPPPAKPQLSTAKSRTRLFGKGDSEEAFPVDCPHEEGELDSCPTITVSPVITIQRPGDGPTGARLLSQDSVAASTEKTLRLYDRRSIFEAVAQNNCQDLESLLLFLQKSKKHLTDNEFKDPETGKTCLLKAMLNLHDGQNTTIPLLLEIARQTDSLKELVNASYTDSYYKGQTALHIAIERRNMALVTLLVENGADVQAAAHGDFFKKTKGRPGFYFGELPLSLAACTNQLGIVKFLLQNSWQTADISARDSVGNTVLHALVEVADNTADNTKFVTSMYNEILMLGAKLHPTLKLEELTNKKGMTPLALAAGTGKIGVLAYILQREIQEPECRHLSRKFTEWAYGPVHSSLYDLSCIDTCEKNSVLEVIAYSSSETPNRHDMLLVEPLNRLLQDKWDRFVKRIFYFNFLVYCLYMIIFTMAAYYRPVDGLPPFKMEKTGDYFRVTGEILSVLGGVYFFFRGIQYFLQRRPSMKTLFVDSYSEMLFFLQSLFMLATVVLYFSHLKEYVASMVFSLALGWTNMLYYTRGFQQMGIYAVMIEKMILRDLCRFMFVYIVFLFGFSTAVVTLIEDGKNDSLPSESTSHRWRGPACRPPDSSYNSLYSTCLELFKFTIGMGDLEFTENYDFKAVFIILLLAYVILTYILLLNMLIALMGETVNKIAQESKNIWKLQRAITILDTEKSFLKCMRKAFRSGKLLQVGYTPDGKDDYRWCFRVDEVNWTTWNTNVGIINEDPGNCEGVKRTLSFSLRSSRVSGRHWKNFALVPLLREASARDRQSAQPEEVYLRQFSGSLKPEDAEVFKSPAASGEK
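Fluo-8 calcium influx in TRPV1-expressing cells, kinetic read (ex 480/em 520 nm). Compound added and read 3 min for agonist activity, followed by capsaicin at EC20 final and 2 min further read for enhancement.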
ClpP mod: qHTS Assay for Activators of ClpP | ATP-dependent Clp protease proteolytic subunit (Bacillus subtilis (strain 168)), P80244 | purified B. subtilis ClpP, FRET peptide cleavage, 20 min | Potency, µM (titrated, usually from 57.5 µM), without a hit: top-dose activity change, negative = active | hit rate 1.9% among 340,000 | AID 651965, 2013; active = well fitted falling curve with a large enough effect; inconclusive = small, poorly fitted or top-dose-only effect; inactive = no such curve, though single readings can be large or run the other way; further: potency means the concentration at half of the fitted maximal effect; the source files actives as falling curves though it sought activators and does not explain the sign; nearly all actives have a fitted effect of over 65% in size; many hits overshoot -100%
Target sequence (P80244 whole entry, looked up): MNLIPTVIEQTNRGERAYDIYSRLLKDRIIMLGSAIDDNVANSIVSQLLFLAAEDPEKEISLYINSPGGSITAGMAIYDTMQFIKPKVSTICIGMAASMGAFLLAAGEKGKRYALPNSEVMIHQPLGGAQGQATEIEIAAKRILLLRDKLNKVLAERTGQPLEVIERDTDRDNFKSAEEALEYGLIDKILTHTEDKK
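Buffer: 100 mM Tris/HCl pH8, 100 mM KCl, 0.05% low protease BSA, 2.5% glycerol, 0.01% Tween-20. ClpP 10 microg/mL final; 20 min RT; delta FRET normalized to ADEP and DMSO controls.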
gsp antag: qHTS for Antagonists of gsp, the Etiologic Mutation Responsible for Fibrous Dysplasia/McCune-Albright Syndrome: qHTS; gsp-mutant cells, cAMP HTRF, 30 min; control for the full effect not named in the record; Potency, µM (titrated, usually from 76.9 µM), inactives show at the highest dose activity change, negative = inhibition, actives largely listed as inhibitors; hit rate 0.4% among 340,000; AID 624288, 2012; active = falling curve of any shape with a large fitted effect; inconclusive = falling curve, mostly with a smaller effect; inactive = flat or rising curve; cell line not stated here;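 further: intracellular cAMP measured with PDE inhibitor Ro 20-1724 present during compound exposure; potency means the concentration at half of the fitted maximal effect; on the % scale 0 is the no-effect control and ±100 the full control effect; nearly all actives have a fitted effect of over 65% in size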
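G418-selected cells were plated in DMEM/10% FBS for 16-24 h at 37C, then treated with compounds plus the PDE inhibitor […] (300 uM solution added) for 30 min at 37C. Intracellular cAMP was measured by HTRF after 30 min lysis at room temperature.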
Sfp inh: qHTS Assay for Inhibitors of Bacillus subtilis Sfp phosphopantetheinyl transferase (PPTase). Potency, µM, without a hit: max response, negative = inhibition, most hits filed as inhibitors. Biochemical Sfp PPTase activity, qHTS. 4'-phosphopantetheinyl transferase ffp (Bacillus subtilis), Q9F4F7. hit rate 3.5% among 310,000. AID 1490, 2009; active means well fitted inhibition curve with a large enough effect; inconclusive means small, poorly fitted or top-dose-only effect, or another doubt; inactive means no such curve, though single readings can be large or run the other way;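 further: the enzyme is Sfp with the accession as filed and its product quenches rhodamine fluorescence; potency means the concentration at half of the fitted maximal effect; 0% = enzyme reaction without inhibitor and -100% = no enzyme wells; top concentration of the series not given in the record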
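Buffer: 50 mM Hepes-Na pH 7.6, 10 mM MgCl2, 0.01% Nonidet P-40, 0.01% BSA. Enzyme 15 nM, pre-exposed to compound 15 min; substrates then added and fluorescence change tracked over 30 min.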
Menin-MLL FL inh: qHTS Assay for Inhibitors Targeting the Menin-MLL Interaction in MLL Related Leukemias: Competition With Fluorescein Labeled MLL-derived Peptide. Fluorescence polarization, fluorescein-MLL peptide displacement from menin. FP activity change, % at 61.4 µM. 290,000 tested, under 10 active; inconclusive = falling polarisation curve, or a change in total fluorescence; inactive = total fluorescence flat and polarisation flat or rising; no compound was filed as active; the % refers to the polarisation; negative = inhibition;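 further: % of control where 0% means no effect; inhibitors lower the polarisation; unlabelled MLL peptide was the positive control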
CtBP-E1A inh: qHTS Assay for Inhibitors of the CtBP/E1A Interaction; CtBP / adenovirus E1A interaction (AlphaScreen); AlphaScreen GST-E1A/His-CtBP binding, 1536-well; hits give low values; control for the full effect not named in the record; activity change, % (no concentration beside the values); hit rate 0.49% among 340,000; in the data active means activity change below about -65%; inconclusive means about -30% to -65%; inactive means above about -30%; further: on the % scale 0 is the no-effect control and ±100 the full control effect; compound concentration not given in the record
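Homogeneous bead-based format: GST-tagged E1A captured on glutathione donor beads, His-tagged CtBP on nickel acceptor beads; compounds precede bead addition by 2 h at 37 °C.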
gsp ag: qHTS for Agonist of gsp, the Etiologic Mutation Responsible for Fibrous Dysplasia/McCune-Albright Syndrome: qHTS; AID 624287, 2012; Potency, µM (top dose mostly 76.9 µM), for inactives: at the top dose activation (cAMP increase), most hits filed as activators; gsp mutant cells, cAMP HTRF, 30 min; control for the full effect not named in the record; hit rate 0.13% among 340,000; active = well fitted activation curve with a large enough effect; inconclusive = small, poorly fitted or top-dose-only effect, or another doubt; inactive = no such curve, though single readings can be large or run the other way; cell line not stated here;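 further: phosphodiesterase inhibitor Ro 20-1724 added with compounds to block cAMP breakdown; potency means the concentration at half of the fitted maximal effect; nearly all actives have a fitted effect of over 60% in size; about a fifth of the inactives were tested at one dose only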
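Cells stably selected in G418 were plated at 2000/well, grown 16-24 hr, then given compounds in DMSO with the PDE inhibitor […] (300 uM solution added) for 30 min at 37C; cAMP was read by HTRF.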
Numbers without * were called inactive; ? = inconclusive; / = no result given; [ ] = dose if it differs, or a comment.

SMILES | TRPV1 potentiator | ClpP mod | gsp antag | Sfp inh | Menin-MLL FL inh | CtBP-E1A inh | gsp ag
COc1cccc(C(=O)C2CCCN(C(=O)c3cccc(C#CC(C)(C)O)c3)C2)c1 (stereo not given) | 8 | 0.3% | -14% | 7% | 0.1 | -7 | -12%
COc1cc(/C=C2/SC(=S)N(CC(=O)Nc3nc4ccccc4s3)C2=O)cc(OC)c1OC | 8 | 0.4% | 2% | -2% | ? | 1 | -31%[inhibitor]
O=C(NCC1CCCO1)C1CC(=O)N(C2CCCC2)C1 (stereo not given) | -2 | -0.2% | 6% | 24% | 1.5 | 9 | 19%
CC1=CC2C(C(O)CC3(C)C2CC(C)C32OCOC23COCO3)C2(C)C/C(=C\O)C(=O)C=C12 (stereo not given) | / | -1.4% | ? | / | / | 6 | -12%
O=C(O)CCCSCC(=O)Nc1ccccc1 | -1 | 1.4% | 7% | 9% | 2.3 | 43 | 0%
O=C(CSc1ccc(Cl)cc1)NC1CC1 | / | -0.4% | / | / | / | 0 | -72%[inhibitor]
CN(Cc1ccccc1)C(=O)c1ccc(NC(=O)C2=CSCCO2)cc1 | 13 | 0.5% | -8% | -5% | / | / | -12%
CCCOC(=O)c1[nH]c2c(c1C)C(=O)CC(c1cc(OC)c(OC)c(OC)c1)C2 (stereo not given) | 21 | -1.0% | ? | 20% | -3.8 | -3 | -29%
CCOC(=O)c1c(C)[nH]c(N=Nc2ccccc2Cl)c1C | -16 | 1.0% | -8% | ? | 1.3 | -11 | -34%
CCCC(=O)Nc1ccc(NC(=O)c2cc3ccccc3o2)c(OC)c1 | 24 | / | -9% | 22% | -2.6 | -3 | -14%
O=C(CCS(=O)(=O)c1cccc2nonc12)N1CC(=O)N(CCc2ccccc2)C(=O)C1 | 16 | 0.7% | 4% | 16% | 6.9 | 6 | -14%
Cc1ccc(OCC(=O)OCC(=O)c2c(N)n(C)c(=O)n(C)c2=O)cc1C | 12 | 1.2% | -3% | -1% | -2.2 | -4 | -19%
Cc1c(NC(=O)C(C)OC(=O)CCc2c[nH]c3ccccc23)c(=O)n(-c2ccccc2)n1C (stereo not given) | 3 | 1.7% | 3% | / | / | 11 | 5%
O=C(NCCCn1ccnc1)C(=O)NCC1OCCN1S(=O)(=O)c1ccccc1 (stereo not given) | ? | / | 15% | 9% | -0.4 | ? | 8%
CSc1nc2ccc(NC(=O)c3ccco3)cc2s1 | -8 | 1.0% | -5% | 25% | 4.0 | -8 | -2%
Cc1ccc(C(=O)c2cn[nH]c2-c2ccccc2O)cc1 | 4 | -0.4% | 5% | 24% | 2.0 | 0 | 0%
C=CCNC(=O)c1onc(CSc2ccc(F)c(F)c2)c1C(=O)NCC=C | / | 1.4% | -12% | / | / | 16 | -29%
COc1ccc(Br)cc1CN1CCCC(C(=O)N2CCCCC2)C1 (stereo not given) | -7 | -0.5% | 1% | -16% | 2.6 | -14 | 17%
O=C(N/N=C/c1ccc([N+](=O)[O-])cc1)c1cccc(N2CCCC2=O)c1 | -20 | -1.8% | -13% | -1% | 0.3 | -7 | ?
COc1cc(C)c(NC(=O)c2cccc(S(=O)(=O)N3CCCC3)c2)cc1OC | / | / | -3% | / | / | -5 | 17%
Cc1cc(NC(=S)N(CCCN2CCOCC2)Cc2ccco2)ccc1Cl | -27 | -2.3% | -6% | -21% | / | 4 | 19%[15.4 µM]
Cc1cc(C)c(NC(=O)COC(=O)C2=COCCO2)c(Cl)c1 | 25 | 1.1% | 7% | / | / | -16 | ?
CCC1(c2ccc(C)cc2)NC(=O)N(C(C)C(=O)Nc2ccc(N3CCOCC3)cc2)C1=O (stereo not given) | -10 | 2.9% | -3% | / | / | 5 | 6%
O=C(Nc1ccn(CCCNCc2cccc3ccccc23)c(=O)n1)OCc1ccccc1 | / | -0.1% | / | / | / | -27 | -5%
CS(=O)(=O)c1ccc(Cl)c(NC(=O)c2cc(S(=O)(=O)N3CCOCC3)ccc2N2CCCC2)c1 | 10 | -4.0% | -1% | / | / | 4 | ?
Cn1nc(C(=O)NCCc2ccc(S(N)(=O)=O)cc2)c2c1-c1ccccc1S(=O)(=O)C2 | 4 | -7.7% | 4% | 13% | -9.1 | 9 | ?
CCCCCN(C(=O)CSc1n[nH]c(-c2ccc(C)cc2)n1)c1c(N)n(CCCC)c(=O)[nH]c1=O | 4 | -0.1% | -21% | / | / | -5 | 8%[15.4 µM]
CCC(=O)N1CN(S(=O)(=O)c2ccc(C)cc2)CC1C (stereo not given) | -24 | 1.8% | 3% | 18% | -0.1 | 3 | -9%
Cc1ccc(N(CC(=O)NCC2CCCO2)S(=O)(=O)c2ccc(Cl)cc2)cc1C (stereo not given) | -10 | -0.5% | 2% | 14% | / | -3 | -4%
CCOP(=O)(OCC)C(NC(=O)c1cccs1)c1ccccc1 (stereo not given) | -7 | / | 6% | 6% | -3.1 | 5 | 29%
COc1cccc(C2Nc3ccccc3NC3=C2C(=O)CC(C)(C)C3)c1OC (stereo not given) | -2 | 1.4% | -4% | 9% | -4.5 | 6 | 0%[15.4 µM]
O=C1CSc2ccc(S(=O)(=O)NCc3ccccc3)cc2N1 | -19 | -2.2% | -1% | 11% | -3.7 | / | -11%
CC1Cc2ccccc2N1C(=S)Nc1cccc(S(=O)(=O)N(C)C)c1 (stereo not given) | 6 | / | -13% | -30% | 1.3 | 3 | ?
CCn1cc(C(=O)Nc2ccc3c(c2)OCCO3)c2cc(OC)c(OC)cc2c1=O | / | 1.4% | 1% | -3% | 3.1 | -3 | 22%
Nc1c(C(=O)c2ccccc2)sc2nsc(SCCN3CCOCC3)c12 | -5 | / | ? | 50µM* | ? | 9 | -3%[15.4 µM]
Cc1cccc(-n2nc3c(c2NC(=O)c2ccco2)CSC3)c1C | -10 | -1.0% | -13% | 40µM* | 6.3 | 1 | 7%

Brought forward from above: three entries; new compounds follow.
SMILES | TRPV1 potentiator | ClpP mod | gsp antag | Sfp inh | Menin-MLL FL inh | CtBP-E1A inh | gsp ag
CCn1cc(C(=O)Nc2ccc3c(c2)OCCO3)c2cc(OC)c(OC)cc2c1=O | / | 1.4% | 1% | -3% | 3.1 | -3 | 22%
Nc1c(C(=O)c2ccccc2)sc2nsc(SCCN3CCOCC3)c12 | -5 | / | ? | 50µM* | ? | 9 | -3%[15.4 µM]
Cc1cccc(-n2nc3c(c2NC(=O)c2ccco2)CSC3)c1C | -10 | -1.0% | -13% | 40µM* | 6.3 | 1 | 7%
O=C(C1=C[C@@H](C2CCCCC2)C[C@@H](OCc2ccc(CO)cc2)O1)N1CCOCC1 | -9 | -1.5% | 0% | 15% | -1.1 | 0 | /
CCOC(=O)N1CCN(S(=O)(=O)CCNC(=O)c2ccc(F)cc2)CC1 | 6 | / | 5% | / | / | -17 | -1%[15.4 µM]
CCOc1cc(NC(=S)NCC2CCCO2)c(OCC)cc1NC(=O)c1ccccc1 (stereo not given) | -4 | -0.5% | ? | 3% | -1.3 | -12 | -12%
CC1=NN(c2cc(Cl)c(S(=O)(=O)O)cc2Cl)C(=O)C1 | / | / | 10% | / | / | 0 | -2%
Cc1ccc(C)c(NC(=O)C2CC3CCC2C3)c1 (stereo not given) | -8 | -1.7% | 7% | 7% | -1.2 | -1 | ?
Cc1nc2cc(F)ccc2n1C1CCN(S(=O)(=O)c2ccccc2)CC1 | 3 | 0.0% | -11% | 8% | -2.3 | -1 | 18%
CC1CCCN(C(=O)CSc2cnc3ccccc3n2)C1 (stereo not given) | -6 | -10% | 24% | -3% | 0.2 | 5 | ?
CSc1ccccc1NC(=O)C1=CC(c2cccs2)=NS(=O)(=O)N1C | 2 | -0.6% | -9% | -15% | 3.1 | -16 | -54%
COc1ccc(C(=O)Nc2c(C)csc2C(=O)O)cc1 | ? | / | -4% | -2% | 0.1 | -4 | 6%[15.4 µM]
COc1ccc(C(=O)c2coc3ccc(O)c(CN(C)C)c23)cc1 | / | 1.3% | 12% | 9% | 1.0 | 1 | -24%
COc1ccc(S(=O)(=O)N(C)C)cc1NC(=O)COC(=O)C1CC1 | / | 0.6% | 15% | / | / | 4 | ?
Cc1ccc(Cn2c(NC(=O)c3ccco3)nc3ccccc32)cc1 | -5 | 39% | -1% | 2% | -1.3 | -2 | -1%

Exported with each value named: two of the compounds above
CCOC(=O)N1CCN(S(=O)(=O)CCNC(=O)c2ccc(F)cc2)CC1
  TRPV1 potentiator = 6 | ClpP mod = / | gsp antag = 5% | Sfp inh = / | Menin-MLL FL inh = / | CtBP-E1A inh = -17 | gsp ag = -1%[15.4 µM]
CCOc1cc(NC(=S)NCC2CCCO2)c(OCC)cc1NC(=O)c1ccccc1 (stereo not given)
  TRPV1 potentiator = -4 | ClpP mod = -0.5% | gsp antag = ? | Sfp inh = 3% | Menin-MLL FL inh = -1.3 | CtBP-E1A inh = -12 | gsp ag = -12%

Next results.
SMILES | TRPV1 potentiator | ClpP mod | gsp antag | Sfp inh | Menin-MLL FL inh | CtBP-E1A inh | gsp ag
COCCn1c(SCc2cccnc2)nnc1-c1c[nH]c2ccccc12 | 1 | -1.5% | 0% | 7% | 3.7 | 3 | -65%[inhibitor]
COc1ccc(CN(C)C(=O)c2ccc(NS(=O)(=O)c3ccc(C)c([N+](=O)[O-])c3)cc2)c(OC)c1OC | ? | -2.4% | -19% | / | / | 0 | -62%[inhibitor]
Cc1ccc(CN(CC(=O)N/N=C/c2ccco2)S(=O)(=O)c2ccc(C)cc2)cc1 | 23 | -5.5% | -15%[15.4 µM] | 23% | 3.8 | 0 | 10%
CCC(C)n1c(SCC(=O)Nc2ccccc2C(F)(F)F)nc2ccsc2c1=O (stereo not given) | 2 | 0.2% | -20% | 2% | 0.6 | 2 | -15%

This is a random part of the collection (roughly 5.3% active in at least one column).
